High-throughput results from PubChem BioAssay.
GALR2 agonist: activates the human galanin receptor 2. GALR2-expressing cells, agonist activation read-out. activation, %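 (tested at 5 µM)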. actives 0.48% (n = 140,000). AID 803;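 active means above mean plus 3 SD of all compounds, about 5% in these data, not always enough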;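 further: 0% = vehicle buffer wells and 100% = reference agonist at full effect; tested in CHO reporter cells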
Target sequence (O43603 whole entry, looked up): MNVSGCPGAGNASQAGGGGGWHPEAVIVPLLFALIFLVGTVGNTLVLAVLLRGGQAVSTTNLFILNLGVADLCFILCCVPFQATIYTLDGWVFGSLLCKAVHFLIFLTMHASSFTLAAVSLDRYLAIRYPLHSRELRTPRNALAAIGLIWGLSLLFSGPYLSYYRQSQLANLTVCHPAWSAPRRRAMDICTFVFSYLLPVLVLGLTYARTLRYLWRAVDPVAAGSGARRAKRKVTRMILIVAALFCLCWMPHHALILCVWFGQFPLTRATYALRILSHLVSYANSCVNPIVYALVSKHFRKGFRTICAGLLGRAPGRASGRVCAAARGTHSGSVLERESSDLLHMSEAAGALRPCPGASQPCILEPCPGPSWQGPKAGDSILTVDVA
HSV replic up: increases HSV replication in cells. HSV replication augmentation in cells, fold increase. maximum fold increase. actives 0.005% (n = 220,000);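 active means peak rise of 1.5-fold or more in the series; inconclusive means self-fluorescent or not available for retest; tested in PC3 cells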;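 further: first round at 10 µM; read as green reporter fluorescence; hits show the peak of a series up to 25 µM; 1 = signal of infected wells without compound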
RGS16-Gao: RGS16-Galphao interaction regulator (human) | O15492+P09471 | bead-based flow cytometry RGS16-Galphao binding, fluorescence; actives lie on both sides | binding response (% of control), % at 10 µM | actives 0.38% (n = 220,000);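 active means below 25% or above 175%, edge rows of some plates excepted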;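 further: Galphao activated by GDP with aluminum fluoride before binding; 100% = wells without compound and 0% = beads without RGS; some results beyond the cut were filed as inactive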
Target sequence (O15492 whole entry, looked up): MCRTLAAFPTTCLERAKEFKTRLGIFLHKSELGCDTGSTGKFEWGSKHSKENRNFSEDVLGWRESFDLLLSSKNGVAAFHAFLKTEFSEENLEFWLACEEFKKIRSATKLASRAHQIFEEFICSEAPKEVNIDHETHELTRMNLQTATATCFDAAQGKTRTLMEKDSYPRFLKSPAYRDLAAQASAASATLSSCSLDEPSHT
Target sequence (P09471 whole entry, looked up): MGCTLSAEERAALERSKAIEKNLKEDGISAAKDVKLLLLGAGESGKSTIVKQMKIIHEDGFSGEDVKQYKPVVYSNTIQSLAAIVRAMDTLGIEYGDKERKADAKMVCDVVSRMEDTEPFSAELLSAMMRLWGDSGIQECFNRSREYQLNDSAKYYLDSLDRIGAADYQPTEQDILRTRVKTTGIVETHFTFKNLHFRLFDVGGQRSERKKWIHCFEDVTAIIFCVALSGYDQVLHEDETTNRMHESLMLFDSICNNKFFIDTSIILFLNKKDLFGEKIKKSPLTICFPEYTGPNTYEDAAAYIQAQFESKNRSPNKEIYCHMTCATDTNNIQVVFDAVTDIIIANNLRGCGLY
PKD1 kinase inh: blocks activity of human protein kinase D1; Q15139; PKD1 kinase fluorescence polarization assay; inhibition, %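 (about 10 µM by stock and volumes)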; actives 0.056% (n = 200,000); AID 797;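 active means inhibition of 50% or more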;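 further: controls were vehicle for no effect and a reference inhibitor for full effect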
INS promoter inh: TRM-6 insulin promoter activity inhibition; TRM-6 cells (human fetal islet line), insulin promoter-eGFP reporter, imaging; reporter expression induced with tamoxifen; inhibition, % at 2 µM; actives 0.9% (n = 130,000); AID 1273;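 active means inhibition above the mean plus 3 SD, with well images judged a real hit on visual review, cut at about 60% in these data, passing the limit was not always enough; inconclusive means inhibition over the cutoff but images rejected on review; inactive means inhibition not above the cutoff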
INS promoter inh cell count: second read-out of INS promoter inh, no call of its own (marks repeat the call); normalized cell count, %; measured here: cell count, toxicity; reference of the scale not given here;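 cells exposed to compound for 48 h; stained nuclei by imaging scaled within each plate; lower means fewer cells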
HSV replic up primary fold: also measured in HSV replic up; calls as there; fold increase; compound at 10 µM; measured here: primary screen fold increase 10 uM; tested in PC3 cells;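 GFP signal in the first replicate; 1 = infected wells without compound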
The depositor's hits bear a star; i = inactive; ? = inconclusive; . = not tested or not shown.

A first look, three compounds:
SMILES	GALR2 agonist	HSV replic up	HSV replic up primary fold	RGS16-Gao	PKD1 kinase inh	INS promoter inh	INS promoter inh cell count
CC(=O)c1cc(C(=O)N2CCc3c([nH]c4ccccc34)C2C2CCCCC2)[nH]n1 (stereo unspecified)	.	i	0.98	99	3	.	.
Cc1nc2cc(NC(=O)NCc3ccccc3)ccc2o1	-1.7	.	.	104	-10	17	110
CCOC(=O)C[N+](CC)(CC)CC#Cc1ccccc1	0.0	i	1.1	99	2	.	.

Results, from the start:
SMILES	GALR2 agonist	HSV replic up	HSV replic up primary fold	RGS16-Gao	PKD1 kinase inh	INS promoter inh	INS promoter inh cell count
CC(=O)c1cc(C(=O)N2CCc3c([nH]c4ccccc34)C2C2CCCCC2)[nH]n1 (stereo unspecified)	.	i	0.98	99	3	.	.
Cc1nc2cc(NC(=O)NCc3ccccc3)ccc2o1	-1.7	.	.	104	-10	17	110
CCOC(=O)C[N+](CC)(CC)CC#Cc1ccccc1	0.0	i	1.1	99	2	.	.
COc1cc(C(=O)NNC(=S)NC(=O)c2ccc(F)cc2)cc(OC)c1OC	.	i	0.75	104	.	.	.
Cc1ccc(NC(=O)CN2CCCC2)c2c1CC(C)(C)O2	.	i	1.1	101	-5	.	.
CN(C)c1ccc(CN(C(=O)c2ccco2)C2CCS(=O)(=O)C2)cc1 (stereo unspecified)	-1.7	i	1	103	-2	.	.
O=C(CSc1nnc(Cc2ccc(Cl)cc2)o1)Nc1ccccc1	.	i	1.1	98	4	26	95
O=C(NCc1ccco1)c1cccc(N2CCCC2=O)c1	-1.9	i	1.1	103	1	-13	70
C/C(N)=C(/C#N)C(=O)CSc1nc2ccccc2n1CC(C)C	.	i	0.88	104	-1	0	86
CCN1C(=O)CC(N2CCOCC2)C1=O (stereo unspecified)	-0.4	i	0.97	795	-7	24	78
N#Cc1c(N)nc(SCc2ccncc2)c(C#N)c1-c1cccs1	-1.2	i	1.1	99	0	26	122
COc1ccc(CCNC(=O)CN2CCN(c3cccc(Cl)c3)CC2)cc1OC	-2.7	i	1	98	-14	.	.
O=c1[nH]c2ccc(NC(=S)Nc3ccc(Cl)cc3Cl)cc2[nH]1	-1.5	i	1	101	3	24	110
O=C(NCc1cccnc1)C1CCCN(Cc2cnn(-c3ccccc3)c2-n2cccc2)C1 (stereo unspecified)	0.7	i	1.3	100	-3	-54	43
CS(=O)(=O)c1nc2c(cc1C#N)CCCC2	.	i	0.88	94	-5	.	.
COCCCn1c(SCC(=O)NNC(=O)c2cccc(O)c2)nnc1-c1ccncc1	.	i	0.96	101	-3	.	.
COC(=O)CNC(c1ccccc1)c1cc(Br)ccc1NS(=O)(=O)c1ccc(C)cc1 (stereo unspecified)	-1.2	i	0.94	118	-1	-75	95
COC(=O)C1=C(C)N(CCc2cc(OC)c(OC)c(OC)c2)C(=O)N[C@H]1c1cccs1	-1.5	.	.	109	-14	15	126
CSC1=NSC2=NC(=O)/C(=C\c3coc4ccccc4c3=O)C(=N)N12	-0.3	?	.	103	-3	.	.
Nc1nc(COc2ccc(F)cc2Cl)nc(N2CCCCC2)n1	.	i	0.98	97	-2	27	131
CCOC(=O)c1cc(-c2cccc(C(F)(F)F)c2)nc2nc(SC)[nH]c(=O)c12	1.5	i	0.89	92	-9	33	141
CCO[C@@H]1OC(C(=O)N2CCCCCCC2)=C[C@H](c2ccc3c(c2)OCO3)[C@H]1CCCO	.	.	.	104	-8	.	.
CC(C)N(CCCNC(=O)C1CCN(S(=O)(=O)N2CCOCC2)CC1)Cc1ccccc1	-0.3	.	.	168	1	31	64
Cc1cc(-c2ccccc2)n(-c2cc(N/N=C/c3ccccc3O)ncn2)n1	1.5	i	0.67	96	4	-147	10
CCOC(=O)N1C2=NC(C(=O)OC)=C(C(=O)OC)[C@@H]3N(C)c4ccccc4[C@]23C[C@H]1C(=O)OC	.	i	1.2	99	.	.	.

The list continues.
SMILES	GALR2 agonist	HSV replic up	HSV replic up primary fold	RGS16-Gao	PKD1 kinase inh	INS promoter inh	INS promoter inh cell count
CC(=O)C1=NN(c2ccccc2)C(c2cccs2)N1c1ccccc1 (stereo unspecified)	1.8	1.5*	1.3*	104	-2	23	41
COC(C[C@@H]1O[C@H]1[C@@H](O)[C@@H](C)OCc1ccccc1)OC	.	i	0.83	96	.	.	.
CCOc1ccccc1NC(=O)Cn1cnc2c(nnn2-c2cccc(OC)c2)c1=O	-0.5	i	0.95	101	-4	29	48
O=C(CSc1nnc(-c2ccccn2)o1)Nc1ccccc1	.	i	0.94	103	-2	.	.
COC(=O)c1nc2cc(C)ccn2c1F	-1.4	i	0.83	106	-11	.	.
COc1ccccc1NC(=O)CN(Cc1ccccc1)S(C)(=O)=O	-2.2	i	0.96	100	-2	44	87
CC(=O)N1CCc2cc(S(=O)(=O)NCCC(=O)Nc3cccc(C)c3)ccc21	-1.3	i	0.88	76	1	.	.
Cc1cccn2c(=O)c3cc(C(=O)NCCN4CCOCC4)c(=N)n(CCc4ccccc4)c3nc12	7.9*	.	.	104	-9	60	102
Cc1ccc(N2C(=O)[C@@H]3C(c4cccnc4)=NO[C@@H]3C2=O)c(C)c1	.	i	1	80	.	.	.
CCOC(=O)N1CCN(c2c(NCCc3ccccc3)c(=O)c2=O)CC1	-3.7	i	1	99	9	.	.
CCOc1cccc(C2C(C(=O)c3cccs3)=C(O)C(=O)N2Cc2cccnc2)c1 (stereo unspecified)	.	i	1	105	1	7	106
CCCCNC(=O)c1onc(CSc2cccc(F)c2)c1C(=O)O	-1.9	i	0.98	104	0	51	120
O=c1c2ccccc2cnn1-c1ccc(Br)cc1	-0.9	i	0.82	100	-1	-44	74
CCN(CC)c1ncnc2sc(C(=O)N3CCN(c4ccc(OC)cc4)CC3)c(C)c12	-0.4	i	0.87	82	5	.	.
O=C(NC(=S)Nc1ccc2c(c1)OCCO2)c1ccccc1F	.	i	0.9	94	6	.	.
Cc1ccc(-c2ccc(C3C(C#N)=C(N)Oc4n[nH]c(C)c43)o2)cc1 (stereo unspecified)	-3.7	i	0.8	101	-10	-11	80
O=C(CCC(=O)N(CC(=O)NC1CCCCC1)CC1CCCO1)Nc1nccs1 (stereo unspecified)	.	i	0.98	125	-1	-17	54
COc1ccc(OC)c(/C=N/N=C(\N)c2nonc2N)c1	.	i	1.1	99	.	.	.
O=C(Nc1ccc2nn(-c3ccccc3)nc2c1)c1ccc2c(c1)OCO2	-3.8	i	0.93	101	-3	44	118
CC(C)COc1cc(=O)[nH]c(SCC(C)C)n1	0.6	i	0.86	101	-6	40	102
Cc1ccc(C(=O)Oc2coc(CSc3nnc(NC(=O)c4cccs4)s3)cc2=O)cc1C	-1.2	i	0.98	106	-5	24	68
C=CCOc1ccc(/C=C2\SC(=Nc3cccnc3)NC2=O)cc1	.	i	1.1	106	.	.	.
O=C(O)c1ccc2c(=O)n3cc(C(=O)c4ccccc4O)cc(Cl)c3nc2c1	.	i	0.91	95	.	.	.
CC1(C)CC2CC(C)(CN2C(=O)COC(=O)Cn2[nH]c(=O)c3ccccc3c2=O)C1 (stereo unspecified)	-4.4	i	0.93	102	2	6	134
N#Cc1nc(Cc2ccccc2)oc1N1CCC(C(N)=O)CC1	-0.7	i	1	103	7	14	73

Later entries
SMILES	GALR2 agonist	HSV replic up	HSV replic up primary fold	RGS16-Gao	PKD1 kinase inh	INS promoter inh	INS promoter inh cell count
COC(=O)c1ccccc1NC(=O)COC(=O)c1ccc(C)c(NC(=O)c2ccco2)c1	-1.7	i	0.63	99	7	8	75
CCNc1cc(=O)n(C)c(=O)n1C	-2.0	i	0.82	113	0	-19	88
CNc1nc(-c2ccc3c(c2)CCN3S(=O)(=O)c2ccccc2)c(C)s1	.	i	0.93	101	-9	.	.
O=C(Nc1nncs1)c1cccnc1Cl	-1.9	i	0.97	83	-2	36	172
O=C(c1cc(Cl)cc(Cl)c1)N1CCC(=O)N(C(COCc2ccccc2)Cc2ccccc2)CC1 (stereo unspecified)	-1.9	i	0.83	114	-10	-65	103
Cc1ccc(C(=O)CSc2nnc(COc3cccc(C)c3)o2)cc1	-2.3	i	0.87	100	-9	-19	109
CC1=CS(=O)(=O)CC1SC(=S)N(C)C1CCS(=O)(=O)C1 (stereo unspecified)	.	i	0.98	98	-2	.	.
Cc1cc(NC(=O)/C=C/c2ccccc2Cl)n(-c2nc3ccccc3[nH]2)n1	0.0	i	0.82	92	-15	26	96
COc1ccc2[nH]c(=O)c(-c3noc(-c4ccccc4)n3)cc2c1	-0.2	i	0.94	97	16	.	.
O=C(C(=O)N1CCc2ccccc2C1)c1cn(CC(=O)N2CCCC2)c2ccccc12	-1.4	i	0.91	102	-10	-32	114
Cc1ccc(SCCC(=O)NCCSCc2ccccc2C)cc1	-2.8	i	0.99	102	-1	-7	66
CC1CCN(c2nnc(NC(=O)Cn3c(=O)oc4ccccc43)s2)CC1	-2.8	i	0.96	101	-9	.	.
CCC(C)(C)NC(=O)c1cc(C(=O)OC)cc([N+](=O)[O-])c1	-1.3	i	0.85	108	-10	-8	48
Cc1cc(SCC#N)nc2ccccc12	.	i	0.91	98	-2	.	.
O=C(C1CCN(S(=O)(=O)c2cccc3cccnc23)CC1)N1CC=C(c2ccccc2)CC1	.	.	.	102	1	.	.
CC(C)(C)CC(=O)Nc1ccccc1N1CCN(c2ccccc2)CC1	.	i	1	100	6	.	.
Nc1c(S(=O)(=O)c2ccccc2)cnc2c(-c3ccc(F)cc3)cnn12	-1.9	i	1.1	83	3	.	.
CCc1cc2c(SCC(=O)c3ccccc3)ncnc2s1	-2.3	i	0.89	103	-1	-66	102
Cc1c(C(=O)NCc2ccccc2)oc2ccc(S(=O)(=O)N3CCCC3)cc12	0.2	i	0.77	105	-4	.	.
COc1cc(C(=O)Nc2ccc3c(c2)Cc2ccccc2-3)cc(OC)c1OC	0.8	i	0.86	71	-5	30	79
CC(NC(=O)NC1CCCCC1)C(c1cccs1)N1CCN(C)CC1 (stereo unspecified)	-0.6	i	0.88	151	2	.	.
Cc1ccc(N(C)C(=O)c2ccc3c(Cl)c4c(nc3c2)CCC4)cc1C	-0.1	i	0.9	100	6	-80	160
CC(=O)Nc1c(F)cc(Br)cc1F	.	i	0.99	96	.	.	.
CCN(CC)C(=O)CSc1nc2c(sc(=S)n2Cc2ccco2)c(=O)n1-c1ccccc1	0.8	i	0.77	100	-8	11	132
COC(=O)c1cccc(NC(=S)NCc2ccco2)c1	.	i	1	106	-5	-20	144

More records
SMILES	GALR2 agonist	HSV replic up	HSV replic up primary fold	RGS16-Gao	PKD1 kinase inh	INS promoter inh	INS promoter inh cell count
Cn1nnnc1SCC(=O)NC(C)(C)C	-1.9	i	0.99	134	-7	36	171
C/C(=N\NC(N)=S)c1ccc(Cl)s1	0.0	i	1.1	102	1	33	67
COCCN1CCN(Cc2nc(Cc3ccc(OC)c(OC)c3)no2)CC1	.	i	1	94	4	.	.
O=C(COc1ccc2ccccc2c1)Nc1cccc2cccnc12	-0.8	i	0.92	100	-6	-23	58
c1ccc2[nH]c(CSc3ncnc4c3oc3ccccc34)nc2c1	0.7	i	0.76	107	6	25	96
S=c1[nH]nc(CCc2ccc(Cl)cc2)o1	-1.3	i	0.96	39	0	10	96
Cn1nc(C(F)(F)F)c2cc(NC(=O)OCC(C)(C)C)sc21	-1.8	i	0.86	93	-3	-26	117
OCCC1CN(Cc2ccsc2)CCN1C1CCCC1 (stereo unspecified)	.	i	1.1	100	8	.	.
O=C(NCC(F)(F)F)Nc1ncccn1	-2.3	i	1.1	90	14	.	.
CC(=O)Nc1nnc(CCN2CCCCC2)s1	-2.1	i	1	101	-1	-3	79
COc1ccc(Nc2nc(NCCO)nc(OC)n2)cc1	-0.2	i	0.93	100	-5	-43	59
CS(=O)(=O)N(CC(N)=O)Cc1ccc(Cl)cc1	-2.9	i	0.78	108	-2	-295	64
CCOC(=O)c1c(C)nc(SC)c(C#N)c1-c1ccccc1	-1.9	i	1.1	112	-4	.	.
CCOC(=O)c1oc2ccccc2c1CN1CCCCC1	.	i	1	99	0	.	.
COc1ccc(/C=N/NC(=O)Nc2cccc3nsnc23)c(OC)c1	-0.4	i	0.86	101	1	-34	175
COC(=O)c1c(C)[nH]c(C(=O)CN2CCOCC2)c1C	0.5	i	0.92	92	4	.	.

One compound at a time, as listed above:
`C/C(=N\NC(N)=S)c1ccc(Cl)s1` as listed: GALR2 agonist = 0.0; HSV replic up = i; HSV replic up primary fold = 1.1; RGS16-Gao = 102; PKD1 kinase inh = 1; INS promoter inh = 33; INS promoter inh cell count = 67
`Cn1nc(C(F)(F)F)c2cc(NC(=O)OCC(C)(C)C)sc21` as listed: GALR2 agonist = -1.8; HSV replic up = i; HSV replic up primary fold = 0.86; RGS16-Gao = 93; PKD1 kinase inh = -3; INS promoter inh = -26; INS promoter inh cell count = 117
